gsp antag = antagonizes gsp, the McCune-Albright syndrome mutation. gsp-mutant cells, cAMP HTRF, 30 min; control for the full effect not named in the record. Potency, µM (series often up to 76.9 µM), for inactives: at the highest dose activity change, negative = inhibition, usual class: inhibitors. 340,000 compounds, 0.4% hits. AID 624288; active = falling curve of any shape with a large fitted effect; inconclusive = falling curve, mostly with a smaller effect; inactive = flat or rising curve; cell line not stated here;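 further: intracellular cAMP measured with PDE inhibitor Ro 20-1724 present during compound exposure; potency means the concentration at half of the fitted maximal effect; on the % scale 0 is the no-effect control and ±100 the full control effect; nearly all actives have a fitted effect of over 65% in size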
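HTRF cAMP measurement after 30 min RT detection following 30 min, 37C compound treatment alongside […] (added as 300 uM solution) in G418-selected cells seeded at 2000/well and grown 16–24 h.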
gsp agonist = activates gsp, the McCune-Albright syndrome mutation; gsp mutant cells, cAMP HTRF, 30 min; control for the full effect not named in the record; Potency, µM (doses to about 76.9 µM), for the others: at the top dose activation (cAMP increase), actives largely listed as activators; 340,000 compounds, 0.13% hits; active = well fitted activation curve with a large enough effect; inconclusive = small, poorly fitted or top-dose-only effect, or another doubt; inactive = no such curve, though single readings can be large or run the other way; cell line not stated here;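 further: phosphodiesterase inhibitor Ro 20-1724 added with compounds to block cAMP breakdown; potency means the concentration at half of the fitted maximal effect; nearly all actives have a fitted effect of over 60% in size; about a fifth of the inactives were tested at one dose only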
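Cells stably selected in G418 were plated at 2000/well, grown 16-24 hr, then given compounds in DMSO with the PDE inhibitor […] (300 uM solution added) for 30 min at 37C; cAMP was read by HTRF.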
TRPV1 potentiator = human TRPV1 potentiation | Q8NER1 | TRPV1-expressing cells, Fluo-8 calcium influx, capsaicin EC20 potentiation; host cell line not named in the record; control for the full effect not named in the record | potentiation, % at 8.33 µM | 320,000 compounds, 0.02% hits | AID 540277; active means potentiation above 80%; inconclusive means 30% to 80%; inactive means below 30%; further: 0% is about no effect
Target sequence (Q8NER1 whole entry, looked up): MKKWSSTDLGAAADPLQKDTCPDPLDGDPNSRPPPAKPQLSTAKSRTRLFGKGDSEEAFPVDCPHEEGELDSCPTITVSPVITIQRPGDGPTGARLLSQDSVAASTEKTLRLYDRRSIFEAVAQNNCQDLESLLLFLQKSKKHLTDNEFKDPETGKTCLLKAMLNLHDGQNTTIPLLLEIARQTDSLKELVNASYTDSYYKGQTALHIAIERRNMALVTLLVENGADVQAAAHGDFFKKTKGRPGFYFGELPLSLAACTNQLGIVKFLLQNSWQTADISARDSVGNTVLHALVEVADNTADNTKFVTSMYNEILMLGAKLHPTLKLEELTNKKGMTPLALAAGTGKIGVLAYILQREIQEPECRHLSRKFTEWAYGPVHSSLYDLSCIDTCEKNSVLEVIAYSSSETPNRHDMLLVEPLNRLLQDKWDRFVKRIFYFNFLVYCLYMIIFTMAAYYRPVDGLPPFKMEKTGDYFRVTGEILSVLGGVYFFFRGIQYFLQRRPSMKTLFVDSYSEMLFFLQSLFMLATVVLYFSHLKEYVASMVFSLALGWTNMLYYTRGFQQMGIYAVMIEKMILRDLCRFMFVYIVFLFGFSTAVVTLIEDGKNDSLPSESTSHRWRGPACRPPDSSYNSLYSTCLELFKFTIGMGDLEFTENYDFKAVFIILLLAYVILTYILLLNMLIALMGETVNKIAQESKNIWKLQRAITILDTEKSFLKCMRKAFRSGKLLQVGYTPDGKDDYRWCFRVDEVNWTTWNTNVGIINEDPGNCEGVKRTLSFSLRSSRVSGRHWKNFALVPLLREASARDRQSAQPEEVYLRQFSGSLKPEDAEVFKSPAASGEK
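Cells expressing TRPV1 were dye-loaded with Fluo-8 and read kinetically: 10 s baseline, 3 min after compound (agonist portion), then 2 min after EC20 capsaicin (allosteric enhancer portion). Calcium-bound dye fluorescence at 480/520 nm.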
CtBP-E1A inh = inhibitors of CtBP/E1A interaction; 340,000 compounds, 0.49% hits; activity change, % (test concentration not listed); AlphaScreen GST-E1A/His-CtBP binding, 1536-well; stronger effect = lower value; control for the full effect not named in the record; in the data active means activity change below about -65%; inconclusive means about -30% to -65%; inactive means above about -30%; further: on the % scale 0 is the no-effect control and ±100 the full control effect
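Homogeneous bead-based format: GST-tagged E1A captured on glutathione donor beads, His-tagged CtBP on nickel acceptor beads; compounds precede bead addition by 2 h at 37 °C.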
Menin-MLL FL inh = menin-MLL binding inhibition, fluorescein peptide | FP activity change, % at 61.4 µM | Fluorescence polarization, fluorescein-MLL peptide displacement from menin | 290,000 tested, under 10 active; inconclusive = falling polarisation curve, or a change in total fluorescence; inactive = total fluorescence flat and polarisation flat or rising; no compound was filed as active; the % refers to the polarisation; negative = inhibition;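 further: % of control where 0% means no effect; inhibitors lower the polarisation; unlabelled MLL peptide was the positive control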
Sfp PPTase inh = Sfp phosphopantetheinyl transferase inhibition; Q9F4F7; Biochemical Sfp PPTase activity, qHTS; Potency, µM, for the others: max response, negative = inhibition, hits mostly inhibitors; AID 1490; 310,000 compounds, 3.5% hits; active means well fitted inhibition curve with a large enough effect; inconclusive means small, poorly fitted or top-dose-only effect, or another doubt; inactive means no such curve, though single readings can be large or run the other way;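 further: the enzyme is Sfp with the accession as filed and its product quenches rhodamine fluorescence; potency means the concentration at half of the fitted maximal effect; 0% = enzyme reaction without inhibitor and -100% = no enzyme wells; top concentration of the series not given in the record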
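Step 1, compound plus 15 nM Sfp-PPTase, 15 min, room temperature. Step 2, add rhodamine-CoA (5 uM) and BHQ-2-YbbR (12.5 uM). Step 3, read 525/598 nm fluorescence at 0 and 30 min.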
ClpP mod = qHTS Assay for Activators of ClpP; 340,000 compounds, 1.9% hits; purified B. subtilis ClpP, FRET peptide cleavage, 20 min; Potency, µM (titrated, usually from 57.5 µM), without a hit: at the top dose activity change, negative = active; ATP-dependent Clp protease proteolytic subunit (Bacillus subtilis (strain 168)), P80244; active = well fitted falling curve with a large enough effect; inconclusive = small, poorly fitted or top-dose-only effect; inactive = no such curve, though single readings can be large or run the other way; further: potency means the concentration at half of the fitted maximal effect; the source files actives as falling curves though it sought activators and does not explain the sign; nearly all actives have a fitted effect of over 65% in size; many hits overshoot -100%
Target sequence (P80244 whole entry, looked up): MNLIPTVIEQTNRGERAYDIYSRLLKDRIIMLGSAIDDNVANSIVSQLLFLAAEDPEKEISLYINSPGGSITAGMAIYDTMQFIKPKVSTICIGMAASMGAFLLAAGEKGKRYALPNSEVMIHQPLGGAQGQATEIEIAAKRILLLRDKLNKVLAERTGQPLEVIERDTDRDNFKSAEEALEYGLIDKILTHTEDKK
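Purified B. subtilis ClpP, 10 microg/mL final in Tris/HCl pH8 with KCl, BSA, glycerol and Tween-20, cleaved an Abz/nitrotyrosine-quenched decapeptide. Fluorescence (ex 320, em 430) was read at 0 and 20 min at room temperature. Delta was normalized to 5.8 microM ADEP and DMSO/no-enzyme controls.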
Starred values were filed as active, the others as inactive; ? = inconclusive; / = no result given; & = joins results of further samples; [ ] = another dose, or the depositor's remark.

SMILES | gsp antag | gsp agonist | TRPV1 potentiator | CtBP-E1A inh | Menin-MLL FL inh | Sfp PPTase inh | ClpP mod
COc1cc(-c2nc3n(n2)C(c2ccncc2)C(C(N)=O)=C(C)N3)cc(OC)c1OC (centres undefined) | 18.8% | -9.6% | 3.9 | -1.2 | 2.3 | 15.6% | 1.2%
Cc1nc2ccc(NC(=O)N3CCCCC3)cc2nc1C | 6.1% | 1.7% | 21.5 | 1.5 | 1.0 | -7.7% | 14.1µM*
COC(=O)Nc1ccccc1C(=O)N1CCC(O)(c2ccc(Cl)cc2)CC1 | 0.9% | -27.0% | 10.7 | -1.5 | -1.3 | 6.4% | -3.8%
CC1(c2ccccc2)NC(=O)N(CC(=O)Nc2ccc(N3CCOCC3)cc2N2CCOCC2)C1=O (centres undefined) | 2.8% | -22.2%[15.4 µM] | 5.9 | -5.6 | / | / | ?
Cc1ccc(S(=O)(=O)N(c2nc(NC(C)C)nc(NC(C)C)n2)n2cnnc2)cc1 | -13.8% | -10.7% | 10.1 | -2.5 | 3.0 | -0.3% | 1.5%
COc1ccc(/C=C(/NC(=O)/C=C/c2ccccc2)C(=O)O)cc1 | -11.6% | 18.5%[15.4 µM] | 14.8 | / | 0.2 | 22.7% | /
Cc1ccc(S(=O)(=O)N2CCN(C(=O)CNC(=O)c3sc4ccccc4c3Cl)CC2)cc1 | -33.2% | 11.2µM* | 0.5 | -22.2 | / | / | -4.2%
O=C(Nc1ccccc1C(F)(F)F)C1CC(=O)N(c2ccccc2F)C1 (centres undefined) | -4.6% | 22.1% | -4.8 | 6.2 | -1.7 | 11.2% | 1.3%
CC(C)NC(=O)c1cccc2c1-c1ccccc1C2=O | 5.0% | 2.2% | -1.2 | 0.1 | -5.2 | 14.4% | -0.5%
NNC(=O)c1csc(Cc2c(Cl)sc3ccc(Cl)cc23)n1 | 3.2% | -5.2% | / | -24.2 | -3.2 | 5.3% | /
COc1ccc2c(c1)-c1c(ssc1=S)C(C)(C)N2 | -1.7% | -44.2%[inhibitor] | 5.1 | 6.8 | 2.9 | ? | -0.2%
C=CCn1c(CSc2nc3ccccc3s2)n[nH]c1=S | -1.7% | -35.5%[inhibitor] | -41.1 | 2.9 | -2.9 | -7.2% | -0.7%
c1ccc(-c2cn3cccnc3n2)cc1 | 3.1% | 17.7% | -25.0 | 7.1 | 4.6 | 14.5% | 5.4%
O=C(CSc1nc2ccccc2c(=O)n1Cc1ccco1)c1ccc(F)cc1 | -13.7% | 24.2% | -1.4 | 9.5 | 1.4 | 31.6µM* | -3.5%
COc1ccccc1S(=O)(=O)Cc1ccc(C(=O)NC2CC2)o1 | 12.2% | ? | 19.1 | -14.3 | / | 10.0% | -4.9%
Cc1cccc(Cn2c(=O)n(Cc3ccco3)c(=O)c3ccccc32)c1 | -28.7% | 14.1% | 4.7 | 9.6 | -2.9 | -2.3% | -1.6%
CCOc1ccc(Nc2nc(N)nc(CCl)n2)cc1 | 17.7% | 9.6%[15.4 µM] | 5.4 | -1.6 | 5.5 | -22.6% | 1.1%
CC(C)Oc1ccc(C(CC(=O)O)NC(=O)Cc2ccc(Cl)cc2)cc1 (centres undefined) | 6.2% | 6.3%[15.4 µM] | 3.3 | 2.2 | -3.9 | 12.4% | 0.2%
CCOc1ccc(CCNC(=O)C(C)N2C(=O)CC(C)(C)Sc3ccccc32)cc1 (centres undefined) | -7.8% | -18.0% | ? | -7.4 | / | 1.9% | -1.8%
CCCCN1CCC(CN2C(=S)NC[C@@H]2CC(C)C)CC1 | 2.7% | / | / | -25.0 | / | / | -2.8%
O=C(/C=C/c1cccc([N+](=O)[O-])c1)c1ccc([N+](=O)[O-])o1 | ? | / | / | 1.3 | / | / | -0.3%
COc1cc(/C=N/N(C)c2ccccc2)cc(Cl)c1O | 11.6% | 7.4% | 16.2 | -24.0 | 1.5 | ? | -2.4%
O=C(CSc1nc2ccccc2c(=O)n1-c1ccc(OC(F)F)cc1)NC1CC1 | -1.7% | -7.2% | 1.6 | 4.2 | / | / | -6.2%
O=C(c1ccc2ncsc2c1)N1CCN(c2nc3ccccc3s2)CC1 | -4.6% | 1.3%[15.4 µM] | 7.4 | -1.0 | / | 23.9% | -0.5%
COc1ccc(OC(C)C(=O)N2CCN(c3ccccn3)CC2)cc1 (centres undefined) | 10.8% | 7.3% | 1.8 | 3.5 | 2.7 | 9.5% | ?
O=C(Cc1ccc2c(c1)CCCC2)Nc1ccccc1Cl | -5.8% | -35.4% | 17.5 | 10.0 | 0.0 | -24.5% | 1.9%
Cc1ccc2nc(-c3ccc(NC(=S)NCC(C)(C)CN(C)C)cc3)sc2c1 | 6.2% | ? | / | 4.5 | / | / | 4.2%
CN(C(=O)c1c[nH]c(=O)cc1C(F)(F)F)c1ccc(Cl)cc1 | 0.1% | 7.0% | 28.5 | 3.8 | 0.4 | 10.7% | 0.0%
CC(=O)N1c2ccc(S(=O)(=O)NCC3CCC(C(=O)NCc4ccccc4)CC3)cc2CC1C (centres undefined) | -26.0% | ? | -12.1 | 2.1 | / | 17.0% | 2.1%
COc1ccc(-c2cc(C(F)(F)F)nc(S(C)(=O)=O)n2)cc1 | 16.9% | ? | 10.6 | 2.9 | 4.2 | -18.5% | -4.5%&5.4%
Oc1oc(-c2ccc(Br)cc2)nc1C=Nc1ccc(Br)cn1 | 4.3% | -23.3% | -3.1 | / | 3.8 | 21.9% | 1.0%
CCN(C(=O)COC(=O)c1c(NC(C)=O)sc(C)c1C)c1c(N)n(Cc2ccccc2)c(=O)[nH]c1=O | 5.1% | -9.8% | / | / | / | / | -8.5%
CCN(CC(=O)NCc1cccs1)CC(=O)Nc1c(Cl)ccc(C)c1Cl | 9.1% | -2.2% | -18.9 | 6.7 | / | / | -2.0%
Cc1cc(C(=O)COC(=O)CNC(=O)c2ccccc2)c(C)n1CC1CCCO1 (centres undefined) | ? | 3.7%[15.4 µM] | -4.0 | -5.2 | 3.0 | -7.3% | /
COc1ccc(O)c(CNc2ccccc2F)c1 | 1.0% | -22.1% | -0.1 | / | -0.2 | 6.0% | -1.4%
O=C(Nc1ccccc1)N1CC=C(c2ccccc2)CC1 | / | / | -5.0 | / | -1.3 | 27.8% | /
O=C(Nc1ncccc1O)c1ccc(S(=O)(=O)N2CCCC2)cc1 | 9.7% | -17.1% | -29.1 | -3.4 | / | / | 2.5%
CC(=O)N1C(=O)c2cccc3cccc(c23)C(=O)N1C(C)=O | 9.8% | 3.3% | -2.8 | -3.6 | 4.1 | 8.6% | 25.1µM*
C=C1CCN([C@H](C(=O)NCc2ccc(Cl)c(Cl)c2)C(C)C)S(=O)(=O)c2ccccc21 | -13.8% | / | 5.6 | 0.3 | 0.9 | -8.7% | 0.4%
CN(C(=O)COC(=O)c1cc(NS(=O)(=O)c2cc([N+](=O)[O-])ccc2Cl)ccc1O)C1CCCCC1 | ? | -7.5% | 20.4 | -18.3 | -6.9 | 10.5% | 1.1%
CCOC(=O)c1cc(NC(=O)c2ccccc2)c(=O)n2c1oc1ccccc12 | -5.3% | -64.6%[inhibitor] | -1.1 | / | 6.0 | 18.3% | 0.2%
N=C1CCC(=N)c2c1c(O)c1ccccc1c2O | -2.8% | 14.8% | 1.1 | ? | ? | ? | /
C[C@]12CC[C@H](O)CC1=CCC1C2CC[C@@]2(C)C1CC[C@@H]2NC(=O)[C@@H](N)CO (some centres undefined) | 0.0% | ? | / | 6.8 | / | / | /
COC(=O)c1cc(CSc2nc3ccc(C)cc3[nH]2)oc1C | -10.0% | -0.1% | 19.0 | -0.2 | -1.2 | 4.5% | ?
Cc1nn(Cc2c(F)c(F)c(F)c(F)c2F)c(C)c1NC(=O)c1ccc(COc2ccc(F)cc2)o1 | -33.9% | 12.5% | 15.9 | 1.6 | 2.8 | 3.8% | 1.0%
COc1ccccc1N1CCN(C(=O)c2ccc(Cn3c(=S)[nH]c4cc5c(cc4c3=O)OCO5)cc2)CC1 | 2.2% | -3.8%[15.4 µM] | -2.9 | 5.4 | 0.6 | 23.9% | 0.6%
N#Cc1ccsc1NC(=O)CSc1nnc(-c2ccccc2)o1 | -7.3% | -13.0% | 8.6 | -13.8 | 4.1 | -17.5% | -1.3%
CCOc1ccc2ncc(S(=O)(=O)c3ccccc3)c(N3CCC4(CC3)OCCO4)c2c1 | / | / | -0.9 | / | 4.7 | -8.5% | /
O=C(Nc1ccc(S(=O)(=O)Nc2ncccn2)cc1)c1ccccc1NS(=O)(=O)c1ccc(F)cc1 | 0.6% | -2.4%[15.4 µM] | 0.2 | 9.2 | -0.8 | -1.4% | /
COc1cccc(NC(=O)Nc2cccnc2)c1 | -25.5% | -3.1% | -6.6 | 0.0 | 6.0 | -5.0% | 0.6%
CC(C)Cc1nc2oc3c(=O)[nH]cnc3c2c2c1CCCC2 | -22.8% | -0.2% | ? | -7.0 | 5.7 | 4.4% | ?
COc1cc2ccccc2cc1C(=O)Nc1nc(C)c(C(C)=O)s1 | -7.2% | -11.0% | -8.7 | 4.6 | -3.8 | -2.3% | -1.4%
Cc1ccc(Cc2cnc(NC(=O)c3cccs3)s2)cc1 | -7.9% | -2.0% | 9.6 | -3.0 | 3.6 | 10.2% | -7.5%
COc1ccc(N2N=NN(C(C)C)C2=C(Cl)c2nnnn2-c2ccc(OC)cc2)cc1 | -3.1% | 1.4% | / | 1.6 | / | / | 0.6%
COc1cc(C)nc(N(C)C(C)=O)n1 | -0.9% | 5.0%[15.4 µM] | -0.3 | 13.0 | 0.1 | 2.4% | -0.8%
COc1ccc(S(=O)(=O)N2CCc3ccccc32)cc1C(=O)O | 4.5% | ? | -12.5 | / | 1.0 | 21.6% | -4.0%
Cc1ccc(C(=O)NC2CCN(CC(=O)NC3CCC(C)CC3)CC2)cc1 (centres undefined) | -3.4% | 5.2% | 0.7 | 1.9 | -0.3 | 9.5% | /

Screening results: PubChem, National Center for Advancing Translational Sciences (NCATS)
